Screening data (PubChem)
miR-21 FLuc – qHTS Assay for Modulators of miRNAs and/orActivators of miR-21. AID 2288, 2010. HeLa miR-21 FLuc reporter, luciferase, 48 h. 340,000 tested, under 10 active. Potency, µM (titrated, usually from 38.3 µM), without a hit: top-dose reporter change, positive = more light; active = well fitted rising curve with a large enough effect; inconclusive = small, poorly fitted or top-dose-only effect; inactive = no such curve, though single readings can be large or run the other way;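 further: % of control where 0% means no effect; miR-21 action dims this reporter so a rising signal means less miR-21 action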
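Using DMEM plus 10% FBS, HeLa miR-21-FLuc cells are incubated with test compounds (final up to about 40uM) for 48 hours; firefly luciferase signal is then imaged following reagent-mediated lysis.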
GLA inh pH 4.5 – qHTS Assay for Inhibitors of Human alpha-Galactosidase at pH 4.5; purified enzyme, 4-MU-alpha-Gal fluorescence, pH 4.5; activity change, negative = inhibition, % at 105 µM; AID 1467, 2008; Alpha-galactosidase A (Homo sapiens), P06280; 230,000 tested, under 10 active; inconclusive = small, poorly fitted or top-dose-only inhibition, or a rising curve; inactive = flat fitted curve, though single readings scatter; no compound was filed as active;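 further: 0% = full activity with enzyme and -100% = basal without enzyme; dose as in the result columns while the protocol names 77 µM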
Target sequence (P06280 whole entry, looked up): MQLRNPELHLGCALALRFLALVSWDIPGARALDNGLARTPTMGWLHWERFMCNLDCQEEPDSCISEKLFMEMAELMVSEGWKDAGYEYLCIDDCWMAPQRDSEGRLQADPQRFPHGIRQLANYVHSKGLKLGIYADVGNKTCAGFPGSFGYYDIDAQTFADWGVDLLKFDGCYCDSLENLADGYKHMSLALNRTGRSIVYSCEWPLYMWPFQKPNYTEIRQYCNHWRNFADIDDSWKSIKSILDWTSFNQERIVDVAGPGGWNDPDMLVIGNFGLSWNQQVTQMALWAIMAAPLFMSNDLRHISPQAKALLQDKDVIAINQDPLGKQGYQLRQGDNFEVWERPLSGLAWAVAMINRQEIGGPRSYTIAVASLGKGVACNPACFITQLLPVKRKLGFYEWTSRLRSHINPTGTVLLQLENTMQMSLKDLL
Rango complex inh – qHTS Assay for Inhibitors of Rango (Ran-regulated importin-beta cargo) - Importin beta complex formation; Rango CFP/YFP FRET sensor + importin beta, 45 min; Potency, µM (top dose mostly 92.2 µM), for inactives: top-dose inhibition of complex formation; Importin subunit beta-1 (Homo sapiens), Q14974; AID 540263, 2011; hit rate 0.031% among 340,000; active = rising FRET ratio curve, often small or poorly fitted; inconclusive = mostly compound fluorescence or quenching in the first reads; inactive = flat curves in all reads;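 further: potency means the concentration at half of the fitted maximal effect; 0% = DMSO wells and 100% = buffer wells lacking importin beta; nearly all actives have a fitted effect of over 15% in size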
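FRET biosensor Rango (snurportin 1 IBB between N-terminal EYFP and C-terminal Cerulean), 50 nM in PBS/1 mM DTT/0.02% Tween-20/0.1% BSA, preincubated 5 min RT with compound; 0.125 microM importin beta added, 45 min RT, CFP/YFP FRET ratio read.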
Rango release inh – qHTS Assay for Inhibitors of RanGTP induced Rango (Ran-regulated importin-beta cargo) - Importin beta complex dissociation; Snurportin-1 (Homo sapiens) + GTP-binding nuclear protein Ran (Homo sapiens) + Importin …; Biochemical FRET Rango-importin beta, RanGTP-induced dissociation; Potency, µM (series often up to 46.1 µM), for inactives: at the highest dose activity change, negative = inhibition; hit rate 0.071% among 340,000; active means falling FRET ratio curve, often poorly fitted, with flat reads before Ran was added; inconclusive means other falling curves, or compound fluorescence or quenching; inactive means flat or rising ratio curve;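 further: potency means the concentration at half of the fitted maximal effect; % of control where 0% means no effect; nearly all actives have a fitted effect of over 45% in size; -100% = wells without RanGTP and RCC1; the record marks most hits as doubtful in a second field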
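Rango FRET biosensor (snurportin-1 IBB flanked by N-terminal EYFP and C-terminal CFP10) at 0.1 uM, with 0.25 uM importin beta in PBS, 1mM DTT, 0.02% Tween-20, 0.1% BSA. 0.6 uM Ran, 2mM GTP and 0.2 uM RCC1 were then added for 45 min at room temperature. Inhibition read as loss of FRET rise.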
Numbers without * were called inactive; u = inconclusive; x = not tested or not shown; & = joins results of further samples; [ ] = remark or other dose. The list is partial; the hit share may differ from the screen's.

SMILES	miR-21 FLuc	GLA inh pH 4.5	Rango complex inh	Rango release inh
CC(C)(C)OC(=O)N1CCC(c2c(C(=O)N3CCN(C(=O)c4ccco4)CC3)cnn2-c2ccc(F)cc2)CC1	2.2%	x	4.3%	6.2%
O=C(COC(=O)C1CCCC1)NCc1ccc(Cl)cc1	-2.3%	4.8	2.6%	11.7%
N#CC(C(N)=O)=C1CCCCC1	-0.5%	0.7	1.5%	7.7%
CC(C)(C)c1cc(C(=O)C[n+]2ccc(C(=O)NCCCO)cc2)cc(C(C)(C)C)c1O	-1.7%	-15.0	u	u
Cc1ccc(C)c(CSc2ccc3nnc(-c4ccccn4)n3n2)c1	8.5%	2.1	-0.9%	0.4%
COCCNC(=O)c1cc(-c2ccc(-c3ccccc3)cc2)nc2ccccc12	0.2%	x	0.1%	4.6%
O=C(CN1C(=O)C2(OCCCO2)c2ccccc21)NCCc1ccccc1	1.0%	-0.5	-3.5%	41.6%
Nc1nc(NCCOCCO)nc(N2CCCCCC2)c1[N+](=O)[O-]	-4.3%	x	5.1%	10.3%
O=C(OCC(=O)N1CCCc2ccccc21)c1ccc(S(=O)(=O)C(F)F)cc1	x	x	-6.1%	-3.4%
COC(=O)c1ccc(SC)cn1	-13.0%	-0.8	4.2%	-24.2%
CCN(CC)S(=O)(=O)c1ccc(N(C)C)c(NC(=O)CC(NC(C)=O)c2ccccc2)c1 (centres undefined)	-2.4%	-9.2	0.3%	5.1%
COc1cc(NC(=O)c2oc3ccccc3c2C)ccc1NC(=O)c1ccco1	-4.5%	x	u	-9.9%
CCCCNC(=O)C(C)N(CCN(C)C)C(=O)CCCN1C(=O)NC(c2ccc(Cl)cc2)C(C(=O)OCc2ccccc2)=C1C (centres undefined)	x	x	-0.3%	19.5%
O=C(Cn1c(CSc2ccccc2)nc2ccccc21)Nc1ccccc1	-0.8%	3.8	x	x
CC1CCCCC1NC(=S)Nc1cccc(S(=O)(=O)N(C)C)c1 (centres undefined)	-0.1%	1.5	0.1%	15.8%
CCOC(=O)c1ccc2c(c1)C(=O)N(C1CCCCC1)C2=O	-10.2%	-6.1	-0.1%	25.4%
CC1(C(=O)Nc2nnc(SCc3ccccc3)s2)Cc2ccccc2C(=O)O1 (centres undefined)	-2.2%	-4.9	-4.9%	13.1%
CCOC(=O)C1C(=O)CC(C)(O)C(C(=O)OCC)C1c1ccc([N+](=O)[O-])cc1 (centres undefined)	3.2%	-12.5	0.1%	-3.9%
COc1cccc(C(=O)NCC(=O)OCC(=O)Nc2cc(OC)c([N+](=O)[O-])cc2C)c1	-0.6%	-2.2	1.3%	4.9%
Cc1nc(C)n(C(C)CNS(=O)(=O)c2ccc(Cl)cc2)n1 (centres undefined)	3.3%	x	2.2%	10.1%
C=CCNC(=O)[C@@H]1CSC2c3ccc(OC)c(OC)c3C(=O)N21 (some centres undefined)	-3.6%	x	-2.9%	-4.1%
O=C(CCn1cccc(C(F)(F)F)c1=O)Nc1cccc(C(F)(F)F)c1	-17.6%	-11.7	-0.1%	5.4%
Cc1ccccc1C(=O)N/N=C1\SCC(=O)N1Cc1ccco1	1.6%	-0.1	11.2%	0.3%
O=C(OCN1C(=O)c2ccccc2C1=O)c1cc(S(=O)(=O)N2CCOCC2)ccc1F	x	x	u	4.8%
COc1cc(C(c2c(C)[nH][nH]c2=O)c2c(C)[nH][nH]c2=O)cc(OC)c1OC	-10.4%	-4.0	-0.6%	-1.5%
COc1ccc(CC(NC(C)=O)C(=O)NC2CCN(C(=O)c3cc(OC)c(OC)c(OC)c3)CC2)cc1 (centres undefined)	7.6%	15.2	3.9%	5.2%
O=C(Nc1nn[nH]n1)c1cccc([N+](=O)[O-])c1	-0.8%	-15.6	4.0%	-0.9%
O=C(COC(=O)c1cncc(Br)c1)NCc1ccccc1Cl	-2.1%	-8.8	-0.8%	9.4%
O=C(c1ccco1)N1CCN(S(=O)(=O)c2ccc(S(=O)(=O)NC3CCCCC3)cc2)CC1	6.2%	-2.3	0.3%	0.7%
Cc1cccnc1NC(=O)CCNC(=O)c1ccc(Cl)cc1	1.4%	x	6.2%	-3.1%
Nc1c(NC2CCCCC2)c2ccccc2oc1=O	-13.7%	-20.1	2.1%	14.2%
COC(=O)CC1C(=O)NC(C)=C1C(=O)OC (centres undefined)	-0.2%	4.2	x	x
O=C(N/N=C/c1coc2ccccc2c1=O)c1cn(-c2ccccc2)nc1-c1ccc(F)cc1	-7.6%	1.2	0.1%	24.1%
COc1ccc(C(=O)NCCc2c[nH]c3ccccc23)cc1	-62.5%	x	1.4%	12.9%
O=C(Nc1ccc(Cl)cc1)C1CCN(C(=O)NC2CCCCC2)CC1	-1.3%	3.0	-0.6%	1.2%
O=C1CCN(CCc2ccccc2)CCN1[C@H](COc1ccccc1)Cc1ccccc1	21.8%	x	-0.4%	1.0%
O=C(Nc1cccc2ccccc12)C1CCCC1	-10.6%	x	3.5%	-13.6%
Cn1cc(C(=O)N/N=C/c2cccs2)c2ccccc21	-53.5%	-11.1	-3.2%	8.5%
COc1ccc(C(=O)CC(=O)C(=O)Nc2ccccc2C(F)(F)F)cc1	-9.8%	x	0.8%	16.7%
O=C(CSc1nc2scc(-c3ccccc3)c2c(=O)[nH]1)Nc1ccccc1	0.7%	x	-0.4%	0.4%
O=C1NN=COc2ccccc21	0.0%	4.5	0.0%	-9.6%
CC1CCN(CCOc2ccc(OCc3ccccc3)cc2)CC1	-28.6%	-10.1	0.3%	1.9%
COc1ccc2c(c1)[n+](=O)c(C(C)=O)c(C)n2[O-]	1.3%	-2.5	-6.3%	-20.5%
O=C1CN2Cc3c(ccc(Cl)c3Cl)N=C2N1	x	-6.9	-2.4%	-8.9%
CC(C)CNC(=O)[C@@H]1CSC2c3ccccc3C(=O)N21 (some centres undefined)	-3.9%	x	-0.1%	6.2%
C=CCn1cccc(C(=O)Nc2ccc(C)c(C)c2)c1=O	-59.4%	x	0.7%	1.3%
CC(C)(C)Cc1nnc(NC(=O)Cc2cccs2)s1	-0.8%	-5.6	u	-14.9%
C#CCNC(=O)C1=C[C@H](c2ccc(C(F)(F)F)cc2)C[C@H](OCCCCO)O1	-19.1%	-1.0	-1.3%	-10.4%
COCCN(CC(=O)Oc1ccccc1P(=O)(OC)OC)Cc1ccccc1	0.9%	-4.6	-0.2%	15.1%
COc1cccc(NC(=O)N2CCC(N3CCCCC3)CC2)c1	-7.5%	-0.5	-0.1%	-10.2%
CCc1ccc(NC(=O)COc2coc(CN3CCN(c4ccccc4)CC3)cc2=O)cc1	x	x	1.6%	2.4%
COc1ccc(NC(=O)C(Cc2ccccc2)n2cccc2)c(OC)c1 (centres undefined)	9.3%&9.6%	-5.5	0.7%	-7.3%
Cc1cc(Br)c2c(c1)/C(=C/C(=O)c1cccs1)C(=O)N2	4.3%	4.3	0.7%	1.5%
O=C(N/N=C\c1cccs1)c1sccc1-n1cccc1	-14.0%	1.2	0.2%	5.7%
O=C(c1cn(-c2ccccc2)nc1-c1cccnc1)N1CCN(S(=O)(=O)c2ccccc2F)CC1	x	x	-1.3%	17.0%
CC1(C)C2CC=C(/C=N/NC(=O)c3ccccc3O)C1C2 (centres undefined)	0.3%	-5.2	-4.4%	3.3%
CCOc1cc(C=O)ccc1OCc1cc(=O)n2cc(C)ccc2n1	6.0%	0.2[21.1 µM]	5.1%	-6.4%
CCc1ccc(NC(=O)C2CCN(S(=O)(=O)c3ccc4[nH]c(=O)ccc4c3)CC2)cc1	-0.3%	x	-1.7%	4.5%
Cn1cc(CN2CCC(C(=O)N3CCCCC3)CC2)c(-c2ccccc2F)n1	-7.7%	-2.3	2.1%	-18.7%
CCOC(=O)C1CN(S(=O)(=O)c2ccc(Cl)cc2)c2cc(S(=O)(=O)CC)ccc2O1 (centres undefined)	0.5%	-2.5	4.3%	19.8%

Going on with the list:
SMILES	miR-21 FLuc	GLA inh pH 4.5	Rango complex inh	Rango release inh
Cc1ccc(CCNC(=O)C2CCN(S(=O)(=O)c3cccc4cccnc34)CC2)cc1	-0.6%	x	0.7%	22.1%
Cc1nnc(SCc2ccc([N+](=O)[O-])cc2)[nH]c1=O	3.2%	5.8	1.1%	-23.8%
Cc1ccc(N=Cc2c(O)ccc3ccccc23)cc1F	-3.4%	-4.8	u	u
NC(=O)CNC(=O)[C@@H]1CC2(CC(c3ccccc3)=NO2)CN1C(=O)c1ccc(Br)cc1 (some centres undefined)	-4.5%	-3.5	3.2%	4.5%
Cc1ccc(NC(=O)c2oc3c(c2C)C(=O)CC(C)(C)C3)cc1	-9.1%	-4.5	1.4%	-0.9%
CCOC(=O)c1cc(NC(=O)c2ccc(OC)cc2)c(=O)oc1-c1ccccc1	-2.9%	-6.5	0.5%	-2.3%
NNC(=O)c1oc2nc(-c3ccco3)cc(-c3ccco3)c2c1N	6.7%	-16.7	u	u
CCCc1nc2ccccc2c(C(=O)OCC(=O)NC2CC2)c1CC	x	x	-8.2%	-6.2%
Cc1cc(C)c2nc(N(CCCN(C)C)C(=O)c3ccc4c(c3)OCCO4)sc2c1	x	x	2.4%	7.8%
CN(CC(=O)Nc1ccc(Cl)c(Cl)c1)C(=O)/C=C/c1ccc(F)cc1	0.4%	-1.1	0.6%	25.4%
Cc1ccc(S(=O)(=O)N2CCC(C(=O)OCC(=O)N(Cc3ccccc3)C(C)(C)C)CC2)cc1C	x	x	2.1%	-1.9%
Cc1ccc(S(=O)(=O)N2CCN(C(=O)CN3C(=O)c4ccccc4C3=O)CC2)c(C)c1	x	x	4.3%	13.6%
COc1ccc(C(=O)Nc2c(Cl)cc(Cl)cc2C(=O)N2CCOCC2)cc1	-6.7%	5.3	1.9%	19.1%
O=S(=O)(Nc1ncnc2scc(-c3ccc(F)cc3)c12)c1cc(F)ccc1F	11.8%	1.6	1.6%	-3.3%
CN(C(=O)c1cccc(NC(=O)Cc2ccc(NC(=O)C3CCN(C(=O)CCc4ccccc4)CC3)cc2)c1)C1CCCCC1	x	x	-0.9%	-0.2%
CCOC(=O)c1ccc(NC(=O)CSc2nc3ncccc3[nH]2)cc1	-26.0%	-1.4	-0.9%	0.5%
COc1ccc(S(=O)(=O)NCc2ccccn2)cc1Cl	-10.1%	-4.5	-1.8%	2.5%
O=C(COC(=O)/C=C/c1cn(-c2ccccc2)nc1-c1ccc2c(c1)OCCO2)NC1CCS(=O)(=O)C1 (centres undefined)	2.6%	2.5	-0.9%	-18.9%
O=C(/C=C/c1ccccc1)NCCc1ccc2c(c1)OCCO2	-27.1%	-14.9	5.0%	0.2%
COc1cccc(C(=O)Nc2ccc(N(C)C)cc2)c1OC	-52.7%	2.9	-0.6%	1.3%
Cc1cc(C2=NNC(=NCCc3ccccc3)SC2)c(C)n1CC1CCCO1 (centres undefined)	-36.8%	-16.3[21.1 µM]	-2.9%	-8.4%
COc1ccc(Oc2c(C(F)(F)F)oc3cc(OCC(=O)O)ccc3c2=O)cc1	8.1%	x	u	11.7%
COc1ccc(CCNC(=O)COC(=O)Cc2c[nH]c3ccccc23)cc1OC	x	x	1.8%	6.5%
CCCCSc1nn[nH]n1	-1.8%	-4.9	-0.8%	1.6%
Cc1cc(-c2ccc(N3CCOCC3)cc2)nc2ccccc12	-61.1%	5.9	u	u
N#CC1=C2N=C(N)c3ccccc3N2C2=C(C(=O)CCC2)C1c1cccc(Cl)c1 (centres undefined)	3.0%	-10.0	u	u

Filtered by structure, the entries above containing a cyano group.
SMILES	miR-21 FLuc	GLA inh pH 4.5	Rango complex inh	Rango release inh
N#CC(C(N)=O)=C1CCCCC1	-0.5%	0.7	1.5%	7.7%
N#CC1=C2N=C(N)c3ccccc3N2C2=C(C(=O)CCC2)C1c1cccc(Cl)c1 (centres undefined)	3.0%	-10.0	u	u
